MITF inh: inhibitors of MITF, primary screen, MITF inhibitor project, cell-based, luminescence | TRPM1 promoter luciferase, 24 h | inhibition, % (no concentration beside the values) | hit rate 0.28% among 37,000 | AID 2240, 2010;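 active = most replicates at 85% or more, or half of them and the mean; inconclusive = half reach 85% but not the mean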;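 also: human melanocyte line stably carrying TRPM1 promoter luciferase reporter; 0% = vehicle wells and 100% = a positive control; the first replicate is given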
* hit, by the source's call; ? = inconclusive. These rows are one share of the data. The share of hits here may be higher or lower than overall.

SMILES,MITF inh
CCC(=O)c1ccccc1OCCCn1cncn1,4
COc1ccc(NC(=O)CN(c2ccc(Cl)c(Cl)c2)S(C)(=O)=O)cc1OC,-5
COc1ccc(C)cc1NC(=O)c1ccc(OCC(=O)Nc2ccccc2C(F)(F)F)cc1,-15
COC(=O)COc1ccc(C2NC(=S)NC(C)=C2C(=O)OC)cc1 (stereo not drawn),-7
CCc1ccc(CCC(=O)Nc2ccc(C)cc2C)o1,-3
CN(Cc1nc(-c2ccccc2)no1)S(=O)(=O)c1ccccc1,-7
Nc1ccc2nc(SCC(=O)Nc3ccc(Oc4ccccc4)cc3)sc2c1,14
Cc1ccc(C(=O)CSc2nsc3sc(C(=O)c4ccc(C)cc4)c(N)c23)cc1,-26
O=C(COc1ccc([N+](=O)[O-])cc1)Nc1cccc(NC(=O)c2ccccc2Cl)c1,14
COc1ccc(-c2nnc(SCC(=O)Nc3ccc(C)cc3C)n2-c2ccccc2)cc1OC,29
Cn1ccnc1CN1CCN(Cc2nccn2C)CC1,-4
Cn1nnc(NC(=O)COc2ccc(C3CCCCC3)cc2)n1,-4
O=C(COc1ccccc1Cl)Nc1ccccc1NC(=O)c1ccco1,-43
Cc1ccc(-c2cc(C(=O)NCCCN3CCOCC3)c3cc(Br)ccc3n2)cc1,-26
O=C(O)c1ccc(NC(=O)C2CC=CCC2C(=O)O)cc1 (stereo not drawn),-10
O=C(NS(=O)(=O)c1ccc(NC(=O)C2CCCO2)cc1)c1ccccc1 (stereo not drawn),-10
O=C(Cc1cccc2ccccc12)Nc1ccc(O)cc1C(=O)O,-8
COc1ccc(C(=O)CSc2nnc(-c3ccccc3)n2-c2ccc(Cl)cc2)cc1,17
CC(=O)c1cccc(N(CC(=O)N(C)C)S(C)(=O)=O)c1,-3
COC(=O)c1sccc1NC(=O)c1cc(-c2cccnc2)nc2ccc(Cl)cc12,27
CCc1ccc(-c2cc(C(=O)Nc3ccc(S(=O)(=O)NC(C)=O)cc3)c3ccccc3n2)cc1,-63
CCc1cc(C(=O)OC)c(NC(=S)Nc2ccc(S(=O)(=O)N3CCOCC3)cc2)s1,9
CCOc1cc(C)c(Cl)cc1S(=O)(=O)NCc1ccccn1,-14
Cc1cc2nc(-c3cccc(NC(=O)COc4ccc(Cl)cc4)c3C)oc2cc1C,?
CCCCn1c2ccccc2c2nnc(SCC(=O)c3ccc(Cl)cc3)nc21,-7

The final 4 records of the section above are carried over, then new ones follow.
SMILES,MITF inh
CCc1cc(C(=O)OC)c(NC(=S)Nc2ccc(S(=O)(=O)N3CCOCC3)cc2)s1,9
CCOc1cc(C)c(Cl)cc1S(=O)(=O)NCc1ccccn1,-14
Cc1cc2nc(-c3cccc(NC(=O)COc4ccc(Cl)cc4)c3C)oc2cc1C,?
CCCCn1c2ccccc2c2nnc(SCC(=O)c3ccc(Cl)cc3)nc21,-7
COc1ccc(C)cc1NC(=O)CN1C(=O)c2cccc3cccc1c23,40
Cc1nc(SCC(=O)Nc2cccc(Cl)c2Cl)nc2c1CCCC2,1
Cc1ccc(NC(=O)CSc2ncn[nH]2)c(C)c1,-1
CS(=O)(=O)N(CC(=O)Nc1ccccc1-c1ccccc1)c1ccc(Cl)cc1,-10
COC(=O)c1c(NC(=O)Cc2ccccc2[N+](=O)[O-])sc2c1CCCC2,45
COc1ccccc1NC(=O)CSc1nc2ccc([N+](=O)[O-])cc2[nH]1,38
Cc1cc(NC(=O)CN(c2c(C)cccc2C)S(C)(=O)=O)ccc1Br,4
O=C(COc1ccc(C(=O)Nc2ccccc2Cl)cc1)Nc1ccc(Oc2ccccc2)cc1,-14
CCn1c(SCC(=O)c2ccc(OC)cc2)nnc1-c1ccccc1Cl,-11
COc1cc(NC(=O)CN(C)S(=O)(=O)c2cc(Cl)ccc2Cl)cc(OC)c1,-5
CCc1cc2c(SCC(=O)O)ncnc2s1,-13
CC(=O)c1ccc(NC(=O)CSc2nc(-c3ccccc3)c(C#N)c(=O)[nH]2)cc1,-85
CCOc1ccc(C)cc1S(=O)(=O)NCC1CCCO1 (stereo not drawn),-10
COc1ccc(Cl)cc1N1CCN(CCNC(=O)Nc2ccccc2C)CC1,4
CNC(=O)CN(c1ccccc1C)S(=O)(=O)c1ccc(Cl)cc1,-1
Cc1ccc(N(C(C)C(=O)Nc2cccc([N+](=O)[O-])c2)S(C)(=O)=O)cc1C (stereo not drawn),9
CCn1c(SCC(=O)Nc2ccc(Br)cc2)nnc1-c1ccccc1,6
Cc1cc(N(CC(=O)Nc2ccc(F)cc2F)S(C)(=O)=O)ccc1Br,-8
CCn1c(SCC(=O)Nc2ccccc2F)nnc1-c1ccc(Br)cc1,-2
COC(=O)c1c(NC(=S)NCCn2cc(Br)cn2)sc2c1CCC2,36
Cc1ccc(Cl)cc1NC(=O)C(C)n1nc(C)c([N+](=O)[O-])c1C (stereo not drawn),1
CCOC(=O)CNC(=O)c1cc(-c2ccccn2)nc2c(C)c(Cl)ccc12,-24
COc1cc(NC(=O)CSc2nnc(-c3ccncc3)o2)cc(OC)c1OC,-24
Cc1ccc(OCCSc2n[nH]c3nc4ccccc4n23)cc1,2
O=C(CCN1CCN(CCO)CC1)Nc1ccc(F)c(F)c1,-18

(more compounds)
SMILES,MITF inh
COc1cc(OC)c(NC(=O)CN(C)S(=O)(=O)c2ccc(Br)cc2)cc1Cl,-10
COc1ccc(C(=O)Cn2c3ccccc3n3nc(-c4cccs4)nc23)cc1,0
COc1cccc(OCC(=O)Nc2ccc(OC)c(NC(=O)c3ccco3)c2)c1,-18
Fc1ccc(N(Cc2nc3ccccc3[nH]2)Cc2nc3ccccc3[nH]2)cc1,2
COc1ccc(NC(=O)CSc2nnc3n4ncnc4c4c5c(sc4n23)COC(C)(C)C5)cc1,-2
C#CCOc1ccc(C(Nc2ccccn2)c2ccc3cccnc3c2O)cc1 (stereo not drawn),43
O=C(NS(=O)(=O)c1ccc(NC(=O)C2COc3ccccc3O2)cc1)c1ccccc1 (stereo not drawn),-7
Cc1cccc(OCCCC(=O)Nc2ccccc2[N+](=O)[O-])c1C,-8
COc1ccc(-c2c(C(F)(F)F)oc3cc(OCC(=O)Nc4ccc(C)cc4)ccc3c2=O)cc1OC,29
N#Cc1nc(COc2cccc(Cl)c2)oc1NCc1ccncc1,-11
CCn1c(SCC(=O)c2ccccc2)nnc1-c1cc2cc(Br)ccc2o1,-12
COc1ccc([N+](=O)[O-])cc1NC(=O)CN(c1ccc(I)cc1)S(C)(=O)=O,37
Cc1ccc(NC(=O)CSc2n[nH]c(N)n2)cc1Cl,-10
O=C(CSc1nc2ccc([N+](=O)[O-])cc2s1)Nc1cc(Cl)cc(Cl)c1,21
O=C(O)CCNS(=O)(=O)c1ccc2c(c1)OCCO2,-13
Cc1c(Cl)cccc1NC(=O)CSc1nnc(-c2ccc([N+](=O)[O-])cc2)n1C,2
Cc1ccc(C(Nc2ccccn2)c2ccc3cccnc3c2O)cc1 (stereo not drawn),49
Cc1cc(C)cc(NC(=O)CSc2nnc(N)s2)c1,0
Cc1cc(C)c(S(=O)(=O)N(C)CC(=O)Nc2cc(C(F)(F)F)ccc2Cl)c(C)c1,13
CCNS(=O)(=O)c1ccc(NC(=O)c2cc(-c3ccncc3)nc3c(C)c(Cl)ccc23)cc1,13
COc1cc(NS(=O)(=O)c2ccccc2[N+](=O)[O-])c(OC)cc1Cl,-9
O=C(CC1Sc2ccc(Cl)cc2NC1=O)Nc1ccc([N+](=O)[O-])cc1 (stereo not drawn),38
COc1ccc(OC)c(S(=O)(=O)N2CCC(C(=O)Nc3cccc(F)c3)CC2)c1,-7
O=C(CCSc1nc2ccccc2o1)N1CCOCC1,-27
COc1cccc(OCC(=O)Nc2cccc(C(=O)O)c2C)c1,-65

Further structures
SMILES,MITF inh
Cn1c(SCC(=O)c2ccccc2)nnc1-c1cc2ccccc2o1,-6
COc1ccc(C2(CNC(=O)c3cccc([N+](=O)[O-])c3)CCOCC2)cc1OC,-17
COc1cc([N+](=O)[O-])ccc1NC(=S)Nc1nn(Cc2ccc(Cl)cc2Cl)cc1Cl,2
Cc1cccnc1NC(=O)COc1ccc(Cl)cc1Cl,5
CCOc1cc(S(=O)(=O)n2nnc3ccccc32)ccc1F,3
COC(=O)c1c(NC(=S)N2CCN(Cc3c(C)nn(C)c3C)CC2)sc2c1CCC(C)C2 (stereo not drawn),43
O=C(CSc1n[nH]c(-c2ccco2)n1)N1c2ccccc2Sc2ccccc21,8
COc1ccc(NC(=O)C(C)N(c2ccc(C)c(C)c2)S(C)(=O)=O)cc1Cl (stereo not drawn),16
N#Cc1c(NC(=O)c2ccc(Cn3cc(Br)cn3)o2)sc2c1CCCCCC2,39
O=C(CCN1C(=O)C2C3c4ccccc4C(c4ccccc43)C2C1=O)Oc1ccccc1[N+](=O)[O-] (stereo not drawn),-13
CC(Oc1ccc(C(=O)NC2CCCCC2)cc1)C(=O)Nc1ccccc1C(F)(F)F (stereo not drawn),8
O=C(c1c[nH]c2ccccc12)C(O)C(c1ccccc1)N1CCOCC1 (stereo not drawn),-1
CCn1c(SCC(=O)Nc2ccc(C(C)=O)cc2)nc2nc3c(cc2c1=O)CCCC3,-51
COc1ccccc1C(=O)N(Cc1nnc2c3ccccc3c(C)nn12)c1ccccc1,-4
COc1ccc(CC(=O)Nc2ccc(S(N)(=O)=O)cc2)cc1OC,2
COc1ccc(OC)c(NS(=O)(=O)c2ccc(NC(=O)C3COc4ccccc4O3)cc2)c1 (stereo not drawn),18
O=C(CSc1nnnn1-c1ccccc1)Nc1cc(Cl)cc(Cl)c1,-24
CC1(C)Cc2c(c(N3CCOCC3)nc3sc4c(SCc5nc6ccccc6[nH]5)ncnc4c23)CO1,15
CCOC(=O)c1c(NC(=O)Cn2nc([N+](=O)[O-])c(Br)c2C)sc2c1CCCC2,18
CCC(CCC(=O)Nc1ccccc1[N+](=O)[O-])C(=O)O (stereo not drawn),-19
COc1ccccc1CN1CCN(Cc2ccc(OC)c(OC)c2OC)CC1,-2
O=C(CSc1nc(O)cc(=O)[nH]1)Nc1ccc(Cl)cc1,-18
CC(C)Oc1ccccc1-c1nc(SCC(=O)O)n[nH]1,1
CNS(=O)(=O)c1ccc(NC(=O)c2cc(-c3cccnc3)nc3ccc(Br)cc23)cc1,2
COc1c(Cl)cc(C(=O)Nc2sc3c(c2C(=O)NCc2cccnc2)CCCC3)cc1Cl,-25

Next section
SMILES,MITF inh
COc1ccc(-c2csc(NC(=O)c3cc(-c4ccc(C)o4)nc4ccccc34)c2C#N)cc1OC,-2
COc1ccc(NC(=O)CN2C(=O)COc3ccc(Cl)cc32)cc1,-7
O=c1[nH]c(=O)n(Cc2ccco2)c2c1C(C(F)(F)F)(C(F)(F)F)N=C(C1CCCCC1)N2,-3
Cc1ccc(S(=O)(=O)N(C)CC(=O)Nc2cccc(F)c2)cc1,9
O=C(Nc1ccc(S(=O)(=O)Nc2nccs2)cc1)C1c2ccccc2Oc2ccccc21,0
Cc1cc(N(CC(=O)Nc2ccc(F)c(F)c2)S(C)(=O)=O)ccc1Br,17
COc1ccc(C)cc1NC(=O)CSc1nc2ccccc2s1,33
COc1ccc(NC(=O)Cn2nc(C)c([N+](=O)[O-])c2C)c(OC)c1,-6
Cc1c(Cl)cccc1NC(=O)CN(c1ccccc1)S(C)(=O)=O,-20
CCOc1ccc(NC(=O)Cn2nc([N+](=O)[O-])cc2C)cc1,-5
Cc1ccc(N(CC(N)=O)S(=O)(=O)c2ccccc2)cc1,1
Cc1cccc(NC(=O)CSc2nc(N)c(C#N)c(-c3ccc(F)cc3)c2C#N)c1,36
O=c1cc(CSc2nnnn2-c2ccccc2)[nH]c(=S)[nH]1,-12
O=C(Nc1ccc(I)cc1C(=O)NCC1CCCO1)c1cccnc1 (stereo not drawn),-11
Cc1ccc2c(C)c(C(=O)Nc3ccc(S(=O)(=O)Nc4ncccn4)cc3)oc2c1,-18
Cc1cccc(NC(=O)c2ccc(OCC(=O)Nc3ccc(Cl)c(Cl)c3)cc2)c1C,-2
COC(=O)C1=C(C)Nc2ncnn2C1c1cccc(OC)c1OCc1ccccc1 (stereo not drawn),5
Cc1ccc(NC(=O)Cn2nc(-c3ccc(C)c(S(=O)(=O)N(C)C)c3)c3ccccc3c2=O)cc1,3
O=C(COc1ccc([N+](=O)[O-])cc1)Nc1ccc2oc(-c3ccccc3Cl)nc2c1,1
CCn1c(SCC(N)=O)nnc1-c1ccc(Cl)cc1,-6
COc1cc2c(cc1NC(=O)C1CCC(=O)N1S(=O)(=O)c1ccc(C)cc1)oc1ccccc12 (stereo not drawn),21
Cc1ccc2oc(C(=O)Nc3nnc(SCc4ccccc4)s3)c(C)c2c1,-47
Cc1cc(Br)c2c(c1)C(O)(CC(=O)c1ccc(C)o1)C(=O)N2 (stereo not drawn),13
CCOC(=O)c1ccc(NC(=O)CC2NC3CCCCC3NC2=O)cc1 (stereo not drawn),-15
O=C(Nc1ccc(-c2nc3ccccc3o2)c(O)c1)c1ncn[nH]1,52

(continued)
SMILES,MITF inh
Cc1occc1-c1nnc(SCC(=O)Nc2cccc(Cl)c2)n1-c1ccccc1,-5
Cc1cccc(NC(=O)CSc2nnc3n(C)c4ccccc4n23)c1,-7
Cc1ccccc1NC(=O)CSc1nc(-c2ccc(Cl)cc2)cc(C(F)(F)F)n1,8
COCCCNC(=O)c1cc(-c2ccccn2)nc2ccc(Br)cc12,13
CS(=O)(=O)N(CC(=O)Nc1cccc([N+](=O)[O-])c1)c1ccc(F)c(Cl)c1,-3
